# Screening results deposited in PubChem BioAssay by National Center for Advancing Translational Sciences (NCATS).
# ClpP mod: qHTS Assay for Activators of ClpP; purified B. subtilis ClpP, FRET peptide cleavage, 20 min; Potency, µM (titrated, usually from 57.5 µM), for the others: at the highest dose activity change, negative = active; hit rate 1.9% among 340,000; active = well fitted falling curve with a large enough effect; inconclusive = small, poorly fitted or top-dose-only effect; inactive = no such curve, though single readings can be large or run the other way; also: potency is read from the fitted curve at half-maximal effect; the source files actives as falling curves though it sought activators and does not explain the sign; nearly all actives have a fitted effect of over 65% in size; many hits overshoot -100%
# Target sequence (P80244 whole entry, looked up): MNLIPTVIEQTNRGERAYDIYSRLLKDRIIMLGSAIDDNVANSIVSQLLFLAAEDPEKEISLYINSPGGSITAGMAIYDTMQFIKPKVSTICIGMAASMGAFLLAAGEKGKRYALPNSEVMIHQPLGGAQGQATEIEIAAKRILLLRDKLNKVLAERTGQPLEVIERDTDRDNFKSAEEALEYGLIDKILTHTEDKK
#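 Buffer: 100 mM Tris/HCl pH8, 100 mM KCl, 0.05% low protease BSA, 2.5% glycerol, 0.01% Tween-20. ClpP 10 microg/mL final; 20 min RT; delta FRET normalized to ADEP and DMSO controls.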
# gsp antag: antagonists of gsp mutant (McCune-Albright syndrome). gsp-mutant cells, cAMP HTRF, 30 min; control for the full effect not named in the record. Potency, µM (highest dose often 76.9 µM), for the others: at the top dose activity change, negative = inhibition, most hits filed as inhibitors. hit rate 0.4% among 340,000. AID 624288; active = falling curve of any shape with a large fitted effect; inconclusive = falling curve, mostly with a smaller effect; inactive = flat or rising curve; cell line not stated here;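 also: intracellular cAMP measured with PDE inhibitor Ro 20-1724 present during compound exposure; potency is read from the fitted curve at half-maximal effect; % is scaled to controls: 0 for no effect and ±100 for the full control effect; nearly all actives have a fitted effect of over 65% in size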
#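 HTRF cAMP read-out (cAMP-d2 plus anti-cAMP antibody-K in lysis buffer, 30 min RT). Before lysis, cells are exposed to compounds with […] for 30 min at 37C in DPBS containing Ca/Mg, BSA and Tween 20.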
# Menin MLL FP FL: displaces fluorescein MLL peptide from human menin. Fluorescence polarization, fluorescein-MLL peptide displacement from menin. FP activity change, % at 61.4 µM. 290,000 tested, under 10 active. AID 1766; inconclusive = falling polarisation curve, or a change in total fluorescence; inactive = total fluorescence flat and polarisation flat or rising; no compound was filed as active; the % refers to the polarisation; negative = inhibition;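 also: % of control where 0% means no effect; inhibitors lower the polarisation; unlabelled MLL peptide was the positive control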
# D2 PAM: human D2 receptor positive allosteric modulation; DiscoveRx D2 beta-arrestin cells, luminescence, 90 min; 100% = 57 uM dopamine signal; hit rate 0.23% among 360,000; P14416; AID 624464; potentiation, % (test concentration not listed); active = potentiation of 50% or more; inconclusive = 30% to 50%; inactive = 30% or less;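 also: compound concentration not given in the record; tested on top of an EC20 dose of dopamine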
# Target sequence (P14416 whole entry, looked up): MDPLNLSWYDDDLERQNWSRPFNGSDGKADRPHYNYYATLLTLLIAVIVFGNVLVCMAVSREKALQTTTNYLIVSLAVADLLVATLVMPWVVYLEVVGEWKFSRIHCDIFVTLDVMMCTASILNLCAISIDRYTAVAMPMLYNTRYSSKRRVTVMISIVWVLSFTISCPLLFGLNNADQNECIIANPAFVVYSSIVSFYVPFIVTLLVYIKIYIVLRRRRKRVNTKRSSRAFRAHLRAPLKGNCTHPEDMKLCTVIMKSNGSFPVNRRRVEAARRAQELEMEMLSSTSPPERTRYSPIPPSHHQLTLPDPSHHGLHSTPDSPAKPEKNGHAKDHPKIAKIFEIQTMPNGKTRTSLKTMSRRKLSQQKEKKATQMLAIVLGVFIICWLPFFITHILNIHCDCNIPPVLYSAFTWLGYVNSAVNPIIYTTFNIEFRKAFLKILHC
#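 PathHunter beta-arrestin assay in DiscoveRx D2 cells. Compounds were added with an EC20 of dopamine (50 nM final) for 90 min at 37 deg C. Luminescence was read 1 h after detection reagent, with 57 uM dopamine as the EC100 control.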
# TRPV1 PAM: potentiators of human vanilloid receptor 1 (TRPV1); Q8NER1; TRPV1-expressing cells, Fluo-8 calcium influx, capsaicin EC20 potentiation; host cell line not named in the record; control for the full effect not named in the record; potentiation, % at 8.33 µM; hit rate 0.02% among 320,000; AID 540277; active means potentiation above 80%; inconclusive means 30% to 80%; inactive means below 30%; also: 0% is about no effect
#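 Fluo-8 calcium influx in TRPV1-expressing cells, kinetic read (ex 480/em 520 nm). Compound added and read 3 min for agonist activity, followed by capsaicin at EC20 final and 2 min further read for enhancement.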
# Sfp PPTase inh: blocks B. subtilis Sfp PPTase activity; Potency, µM, inactives show max response, negative = inhibition, actives largely listed as inhibitors; hit rate 3.5% among 310,000; Biochemical Sfp PPTase activity, qHTS; AID 1490; active = well fitted inhibition curve with a large enough effect; inconclusive = small, poorly fitted or top-dose-only effect, or another doubt; inactive = no such curve, though single readings can be large or run the other way;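 also: the enzyme is Sfp with the accession as filed and its product quenches rhodamine fluorescence; potency is read from the fitted curve at half-maximal effect; 0% = enzyme reaction without inhibitor and -100% = no enzyme wells; top concentration of the series not given in the record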
#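 Sfp 15 nM + cpd, 15 min RT; start w/ rhodamine-CoA 5 uM, BHQ-2-YbbR 12.5 uM (final); 50 mM Hepes pH 7.6, 10 mM MgCl2, 0.01% NP-40, 0.01% BSA; read 525/598 nm at 0 and 30 min.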
# gsp ag: agonists of gsp mutant (McCune-Albright syndrome) | Potency, µM (series often up to 76.9 µM), for inactives: at the top dose activation (cAMP increase), most hits filed as activators | gsp mutant cells, cAMP HTRF, 30 min; control for the full effect not named in the record | hit rate 0.13% among 340,000; active = well fitted activation curve with a large enough effect; inconclusive = small, poorly fitted or top-dose-only effect, or another doubt; inactive = no such curve, though single readings can be large or run the other way; cell line not stated here;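 also: phosphodiesterase inhibitor Ro 20-1724 added with compounds to block cAMP breakdown; potency is read from the fitted curve at half-maximal effect; nearly all actives have a fitted effect of over 60% in size; about a fifth of the inactives were tested at one dose only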
#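 Cells stably selected in G418 were plated at 2000/well, grown 16-24 hr, then given compounds in DMSO with the PDE inhibitor […] (300 uM solution added) for 30 min at 37C; cAMP was read by HTRF.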
# * = called active by the depositor; ? = inconclusive; · = no result given; & = joins results of further samples; [ ] = another dose, or the depositor's remark. Rows were taken by chance, and some 5.1% of all compounds hit somewhere here.
SMILES,ClpP mod,gsp antag,Menin MLL FP FL,D2 PAM,TRPV1 PAM,Sfp PPTase inh,gsp ag
CCCCN(C(=O)CCNC(=O)NC12CC3CC(CC(C3)C1)C2)c1c(N)n(CCC)c(=O)[nH]c1=O,1.5%,-12%,·,-22,-10,·,-7%
O=C(CCc1nc2ccccc2c(=O)[nH]1)Nc1nc(-c2cccs2)cs1,·,-2%,·,2,8,·,7%[15.4 µM]
Cc1ccc2c(c1)N(S(=O)(=O)c1ccc3c(c1)NC(=O)CC(=O)N3)CCO2,0.8%&1.0%,-5%,1.3,1,?,10%,?
COc1ccccc1CCNC(=O)c1ccccc1SCC(=O)N1CCCC1,1.4%,1%,·,-1,-9,·,1%
COC(C[C@@H]1O[C@@H]1[C@@H](O)[C@@H](C)OCc1ccccc1)OC,-0.1%,-17%,0.5,-7,?,18%,·
COc1ccccc1NC(=O)CC(NCCN(C)C)C(=O)O (stereo not given),0.2%,9%,-0.8,7,3,?,9%
COc1ccc(OC)c(-n2cc3c(=O)n(C)c(=O)n(C)c3c2)c1,-5.4%,6%,-1.9,11,-8,-17%,-19%
Cn1c(COc2cccc3cccnc23)nnc1SCC(=O)O,-14%,8%,1.5,-5,4,13%,24%
CCN(CC)c1ccc(-n2c(C)cc(C=O)c2C)cc1,-0.6%,-14%,7.4,-8,-11,-13%,2%
CC(=O)O/N=C(\N)c1ccc(-c2csnn2)cc1,-2.5%,3%,2.6,14,-3,0%,-9%[15.4 µM]
O=C(CC1SC(=Nc2ccc3c(c2)OCCO3)NC1=O)Nc1ccc(F)cc1F (stereo not given),·,-4%,5.6,-4,1,7%,7%[15.4 µM]
CC(C)c1cc2c(c(O)c1O)[C@@]13CCCC(C)(C)C1CC2OC3=O (stereo not given in full),-3.1%,-17%,-0.8,-13,0,4µM*,·
COc1ccc2oc(C)c(C(=O)Cn3ccnc3)c2c1,-1.6%,6%,7.3,-15,5,2%,0%
COCCn1c(=O)[nH]c2cc(C(=O)NCCc3ccc(OC)c(OC)c3)ccc2c1=O,-7.2%,-10%,1.0,-8,-7,20%,-16%
COc1ccc(OC)c(CN2CCCC(CCC(=O)N(C)CCc3ccccn3)C2)c1 (stereo not given),-4.4%,8%,1.2,-18,-1,0%,4%
CCNC(=O)C(=O)NCC1OCCCN1S(=O)(=O)c1ccc(F)cc1C (stereo not given),-1.9%,4%,·,-19,-3,16%,-9%[15.4 µM]
O=C(NNC(=S)NC(=O)c1cccs1)c1cccnc1,·,-11%,0.3,-26,-4,0%,-1%[15.4 µM]
Cc1ccccc1CSc1nc2ccccc2c(=O)[nH]1,1.1%,14%,5.3,2,8,7%,-36%[inhibitor]
Cc1ccc(-n2nc3c(c2NC(=O)c2ccc4c(c2)OCO4)CS(=O)(=O)C3)cc1,-3.0%,?,0.6,-12,-13,9%,4%
CCOC(=O)c1nnc(-c2cccs2)nc1Oc1ccccc1C(=O)OC,-0.4%,12%,-1.3,-3,6,15%,-25%
Cc1ccc(C2C(C#N)=C(N)SC(N)=C2C#N)o1,·,·,?,·,1,13µM*,·
Cc1ccc(NC(=O)C2Cc3ccccc3CN2C(=O)c2ccccc2)cc1Cl (stereo not given),-1.3%,-10%,0.3,-33,-9,2%,7%
COCCn1c(SCC(=O)Nc2cccnc2Cl)nc2ccccc21,-12%,-1%,·,-2,·,·,0%
CC(NC(=O)C12CC3CC(CC(O)(C3)C1)C2)c1ccccc1 (stereo not given),·,-14%,4.5,-2,7,28%,1%
CC(C)(C)OC(=O)C[C@H]1C/C=C\C[C@H](CC(=O)N(CCO)Cc2ccccc2)C(=O)N[C@@H](c2ccccc2)COC1=O,-3.0%,-14%,·,5,·,·,6%
Cc1ccc(C(O)CSc2nnc(-c3ccc4ccccc4c3)n2C)cc1 (stereo not given),47%,0%,6.3,-14,12,1%,-16%[15.4 µM]
CC(C)OC(=O)CSc1nc2ncccc2[nH]1,-2.9%,10%,0.2,16,0,0%,32%
Cc1ccc2cc(CN(CC3CCCO3)C(=S)Nc3ccccc3)c(=O)[nH]c2c1 (stereo not given),·,-15%,2.4,3,-13,5%,-10%[15.4 µM]
COc1ccc(-c2nnc(SCC(=O)NC3CCCCC3)o2)cc1,·,-13%,·,1,0,15%,-1%
CCCc1cc(C(=O)Nc2ccccc2C(=O)OC)no1,52%,-3%,2.0,-6,-5,12%,-83%[inhibitor]
Cc1ccc(-c2nc(C(=O)O)cs2)cc1,·,-13%,1.3,8,-6,9%,-9%[15.4 µM]
Cc1ccc(Nc2nnc(SCC(=O)Nc3ccccc3[N+](=O)[O-])s2)cc1,-1.5%,-17%,5.5,7,-8,-4%,-21%[15.4 µM]
CC(=O)c1ccc(OC(C)C)c(Cc2c(O)nc(N)[nH]c2=O)c1,13%,-22%,2.1,-5,-17,10%,-5%
COc1cc(CNCc2ccc(OC)c(OC)c2OC)cc(OC)c1,-0.6%,-7%,-6.8,-18,4,-2%,1%
Cc1[nH]n(-c2ccccc2)c(=O)c1-c1ccc(Cl)cc1,-0.1%,-23%,1.9,-4,-2,-11%,-42%[inhibitor]
CN1CCC2(CC1)Nc1nc(SCc3ccc(Cl)cc3)nn1C1=C2CN(C)CC1,-2.5%,11%,-1.0,-23,-16,-3%,?

# Brought forward from above: two compounds, then new ones.
SMILES,ClpP mod,gsp antag,Menin MLL FP FL,D2 PAM,TRPV1 PAM,Sfp PPTase inh,gsp ag
Cc1[nH]n(-c2ccccc2)c(=O)c1-c1ccc(Cl)cc1,-0.1%,-23%,1.9,-4,-2,-11%,-42%[inhibitor]
CN1CCC2(CC1)Nc1nc(SCc3ccc(Cl)cc3)nn1C1=C2CN(C)CC1,-2.5%,11%,-1.0,-23,-16,-3%,?
COc1cc(NC(=O)CSc2nc3[nH]ncc3c(=O)n2-c2ccccc2)cc(OC)c1OC,0.5%,·,·,0,·,·,-35%[inhibitor]
CC(C)=NNc1nc2c(c(=O)n(C)c(=O)n2C)n1CCc1ccccc1,·,-49%,-1.5,-1,5,-18%,-18%[15.4 µM]
COc1ccc(-c2csc(N(CC3CCCO3)C(=O)c3ccccc3)n2)cc1 (stereo not given),-2.4%,?,-8.4,-4,-1,-23%,-33%[inhibitor]
O=C(CSc1nncs1)NCc1ccc2c(c1)OCO2,0.8%,11%,0.0,1,-12,4%,-7%
O=C(CCC(=O)N1CCN(c2ccccn2)CC1)Nc1nnc(C(F)(F)F)s1,1.0%,0%,-1.0,-16,2,10%,5%[15.4 µM]
Cc1cccc(C(=O)NCC(=O)NCC2COc3ccccc3O2)c1 (stereo not given),-0.6%,0%,·,-17,7,·,-6%
CN1CCN(C2=Cc3ccccc3Sc3cc(F)ccc32)CC1,0.3%,-1%,5.0,-34,3,-11%,0%
CC1(C)Cc2c(c(=S)nc(-c3ccccc3)n2CCCN2CCOCC2)CO1,-2.9%,1%,-0.1,3,?,-29%,-1%
Cc1cc(=O)oc2c3c(cc(OCC(=O)NC(Cc4ccc(Cl)cc4)C(=O)O)c12)OC(C)(C)CC3 (stereo not given),4.8%,-3%,1.8,-6,-1,14%,·
CN1c2ccccc2C(C)(C)C12CC(CCl)=NO2 (stereo not given),-2.0%,-13%,4.8,-15,8,-8%,-5%
CO/N=C/CC(=O)c1ccc(OC)cc1,·,7%,-2.1,-13,-5,-16%,-44%[inhibitor]
CC(=O)c1ccc(NC(=S)NCc2ccc(Cl)cc2Cl)cc1,-0.1%,?,-1.3,11,0,2%,-19%
COc1ccc(C(Nc2ccc(S(=O)(=O)NCC3CCCO3)cc2)C(=O)NC(C)(C)C)cc1OC (stereo not given),·,3%,4.0,3,-14,9%,-33%[15.4 µM]
Cn1nc(-c2ccccc2)c(CSc2ccccc2Cl)c1Cl,-1.6%,-4%,-0.3,1,-5,-3%,17%
C/C(CC(=O)N(C(C)C)C(C)C)=N\NC(=O)COc1ccc(Cl)cc1Cl,0.7%,2%,1.2,-9,-3,3%,-21%
Cc1ccccc1Cn1c(=O)c2c(nc3n2CCCN3Cc2ccccc2)n(C)c1=O,-2.8%,-18%[15.4 µM],·,-4,·,·,-27%
Cc1csc(NC(=O)CSc2ncnc3ccccc23)n1,1.4%,1%,3.4,2,0,6%,4%
CCCN(CC(=O)Nc1ccc(C(C)=O)cc1)CC(=O)Nc1ccccc1C,·,-13%,-8.4,-12,0,-14%,-1%[15.4 µM]
O=C(CSc1nc2[nH]ncc2c(=O)[nH]1)Nc1ccc(OC(F)(F)F)cc1,-1.1%,10%,·,-13,2,·,-13%
COc1ccc(CCn2c(C)cc3c(c2=O)C(c2ccc4c(c2)OCO4)C(C#N)=C(N)O3)cc1OC (stereo not given),1.5%,?,-1.5,11,8,5%,2%
CC1CCN(C(=O)CCCC(=O)N2CCC(C)CC2)CC1,-0.5%,25%,·,0,-1,22%,17%
Cc1ccc(S(=O)(=O)N2CCN(C(=O)c3cc(S(=O)(=O)N4CCOCC4)ccc3Cl)CC2)c(C)c1,2.8%,-23%,·,2,·,·,19%
C=C(C)CNC(=O)CCc1nnc(C2(c3ccc(Cl)cc3)CCC2)o1,1.6%,-7%,-0.1,0,-12,-13%,2%
Cn1nnnc1SCC(=O)Nc1ccc2c(c1)OCO2,0.6%,2%,-4.1,11,5,14%,?
CC(NC(=O)c1ccc2nc(Cc3cccc(Cl)c3)oc2c1)c1ccncn1 (stereo not given),0.1%,·,·,-4,·,·,-35%
O=C(O)C1CSC(c2ccccc2)N1C(=O)c1ccco1 (stereo not given),-0.5%,3%,5.7,-1,-4,-4%,3%
CCN(CC)c1cc(C)c2cc(NC(=O)CNC(C)=O)ccc2n1,16µM*,1%,4.1,-6,7,20%,-11%
CN1CCN(c2ccc3sc(-n4ccc5ccccc54)nc3c2)CC1,-4.6%,·,·,-7,·,·,-8%
CCOc1ccc(CNC(=O)NS(=O)(=O)c2ccc(OC)cc2)cc1,-4.9%,-5%,0.6,1,-3,21%,19%
O=C1C=C(NCc2ccncc2)CC(c2ccccc2)C1 (stereo not given),-3.2%,-9%[15.4 µM],0.1,-7,-9,6%,5%
